Assay outcomes (PubChem BioAssay)
HttQ103 aggreg – inhibitors of mutant huntingtin aggregate formation in PC12 cells; PC12 HttQ103-GFP aggregates, Acumen cytometry, 40 h; Potency, µM (highest dose often 46.1 µM), inactives show top-dose activity change, negative = inhibition, hits mostly inhibitors; 220,000 compounds, 1.1% hits; further: on the % scale 0 is the no-effect control and ±100 the full control effect; nearly all actives have a fitted effect of over 60% in size
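Steps: seed 1500 PC12 HTTQ103-GFP cells/well; add tebufenozide, 100 nM final; add compound titration; add ATPLite reagent; quantify GFP aggregates by laser scanning cytometry.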
GAA inhib – alpha-glucosidase (human) inhibition | P10253 | purified human GAA, 4-MU-alpha-glucoside fluorescence | Potency, µM (highest dose often 76.9 µM), without a hit: top-dose activity change, negative = inhibition, hits mostly inhibitors | 200,000 compounds, 0.005% hits | AID 1466;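 further: plate controls were uninhibited enzyme wells for no effect and no-enzyme background for full effect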
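Endpoint fluorogenic read: 20 min room-temperature reaction of 4 nM human alpha-glucosidase with 400 uM 4-methylumbelliferyl-alpha-D-pyranoside, pH 5.0, quenched with 1M NaOH/1M glycine pH 10. AC50 from Hill modeling.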
GAA glycogen – alters human alpha-glucosidase cleavage of glycogen. P10253. recombinant GAA, glycogen substrate, Amplex Red glucose oxidase fluorescence. Potency, µM (doses to about 76.4 µM), for the others: top-dose activity change, negative = inhibition, most hits filed as inhibitors. 300,000 compounds, 0.38% hits;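 further: 0% = full enzyme reaction and -100% = no-enzyme basal signal; the screen sought inhibitors and activators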
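Natural-substrate format: glycogen cleavage by 4 nM human enzyme, glucose read by Amplex Red coupling (Ex 573, Em 610 nm). Normalized to enzyme and no-enzyme controls.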
GAA spleen mod – inhibits or activates alpha-glucosidase in human spleen homogenate. P10253. human spleen homogenate, 4-MU-alpha-glucoside fluorescence. Potency, µM (doses to about 79.9 µM), without a hit: at the top dose activity change, negative = inhibition, usual class: inhibitors. 240,000 compounds, 0.006% hits;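 further: 0% = enzyme with vehicle and -100% = no enzyme basal signal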
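Human spleen homogenate (1 ug) with 4-methylumbelliferyl-alpha-D-glucopyranoside (1 mM final) in 50 mM citrate/phosphate pH 5.0, 0.01% Tween-20; 40 min at 37 C. Stopped at pH 10; 4-MU fluorescence Ex 365/Em 440 nm; AC50 by Hill fit.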
HTT cytoprotect – cytoprotection in Huntington HTT-Q103 PC12 cell model. PC12 HTT-Q103 induced, cytoprotection, ATP luminescence, 40 h. Potency, µM (titrated, usually from 56.4 µM), for the others: cytoprotection (ATP increase), actives largely listed as activators. 230,000 compounds, 0.14% hits. AID 1471;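 further: % of control where 0% means no effect; nearly all actives have a fitted effect of over 45% in size; toxic huntingtin expression switched on by the ecdysone agonist tebufenozide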
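PC12 cells with ecdysone-inducible HTT exon 1 Q103-GFP, induced with 100 nM tebufenozide and co-treated with library compounds in a dose series (1536-well, 1500 cells/well). Cytoprotection read as ATP content by ATPlite luminescence.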
RGS12 GoLoco inh – inhibitors of human Gai1-RGS12 GoLoco interaction (red fluorophore) | P63096 | Potency, µM (highest dose often 61.6 µM), without a hit: at the highest dose activity, negative = inhibition, hits mostly inhibitors | 230,000 compounds, 0.44% hits | Gai1:RGS12 GoLoco peptide FP, rhodamine, 10 min; active means well fitted inhibition curve with a large enough effect, not every such curve was filed as active; inactive means no such curve, though single readings can be large or run the other way; further: on the % scale 0 is the no-effect control and ±100 the full control effect; nearly all actives have a fitted effect of over 30% in size; many of its hits are not listed in these tables
Target sequence (P63096 whole entry, looked up): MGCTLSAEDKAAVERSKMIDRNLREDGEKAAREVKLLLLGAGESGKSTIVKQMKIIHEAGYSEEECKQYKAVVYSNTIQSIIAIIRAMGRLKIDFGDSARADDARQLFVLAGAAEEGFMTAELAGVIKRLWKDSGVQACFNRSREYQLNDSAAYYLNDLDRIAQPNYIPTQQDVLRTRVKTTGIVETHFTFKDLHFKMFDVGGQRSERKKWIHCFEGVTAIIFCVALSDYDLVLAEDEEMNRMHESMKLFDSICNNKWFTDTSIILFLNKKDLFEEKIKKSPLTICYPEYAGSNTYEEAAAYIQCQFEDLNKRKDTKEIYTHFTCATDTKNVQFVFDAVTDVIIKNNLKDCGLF
* hit, by the source's call; ? = inconclusive; / = not tested or not shown; & = joins results of further samples; ! = not confirmed by another sample; [ ] = another dose, or the depositor's remark. Unless noted, the call rests on the fitted dose curve; in most records, active means well fitted curve in the direction sought with a large enough effect; inconclusive means small, poorly fitted or top-dose-only effect, or another doubt; inactive means no such curve, though single readings can be large; an effect the other way counts as inactive or inconclusive. Potency means the concentration at half of the fitted maximal effect.

nr | Molecule | HttQ103 aggreg | GAA inhib | GAA glycogen | GAA spleen mod | HTT cytoprotect | RGS12 GoLoco inh
1 | CCC[C@@H]1C[C@@H](C(=O)NC(C(C)Cl)[C@H]2O[C@H](SC)[C@H](O)[C@@H](O)[C@H]2O)N(C)C1 (some centres undefined) | / | / | 3%[76.3 µM] | -9% | ? | 0%
2 | Cc1ccc(OCCNC(=O)/C=C/c2ccc([N+](=O)[O-])cc2)cc1C | -12% | -10% | -2% | -15% | -18% | -9%
3 | COC(=O)C1=C(C)NC(C)=C(C(=O)OC)C1c1ccccc1[N+](=O)[O-] | -27%&-44% | 3%[15.4 µM] | -8% | 3% | -65%[inhibitor] | -18%
4 | CC(=O)Nc1cccc(C(=O)O)n1 | 16%[9.22 µM] | ? | 13% | 0% | -6% | 15%
5 | CC1=C(C(=O)O)N2C(=O)[C@@H](NC(=O)C(N)c3ccccc3)[C@H]2SC1 (some centres undefined) | / | / | / | -2% | / | -3%
6 | COc1c(Cl)cnn(-c2ccc(C)cc2)c1=O | 6% | -9% | 7% | 4% | -20%[10 µM] | -4%
7 | O=C(/C=C/c1ccco1)Nc1nc(-c2ccccc2)cs1 | -22% | 1% | -16% | 3% | 14%[10 µM] | 13%
8 | N#CC1=C(N)Oc2c(oc(CO)cc2=O)C12C(=O)Nc1ccc(Cl)cc12 (centres undefined) | 12% | -1% | 8% | -2% | -6%[10 µM] | -15%
9 | O=C(NC1CCCC1)c1cc(Cl)ccc1[N+](=O)[O-] | 24% | -1% | 4% | -1% | / | 7%
10 | Cc1ccc(C)c(N2CCN(C(=O)CCCN3C(=S)NC(C)(C)CC3C)CC2)c1 (centres undefined) | -25% | -1% | -5% | -2% | 17%[10 µM] | 5%
11 | CCC(C)(C)C(=O)O[C@H]1C[C@@H](C)C=C2C=C[C@H](C)[C@H](CC[C@@H]3C[C@@H](O)CC(=O)O3)[C@H]21 | / | / | -8%[76.3 µM] | / | -54%[inhibitor] | /
12 | COc1ccc(OC2C(=O)N(Cc3ccc4c(c3)OCO4)C2c2cccs2)cc1 (centres undefined) | -22% | -3% | -6% | -7% | -37% | 6%
13 | C#C[C@]1(O)CC[C@H]2[C@H]3CCC4=Cc5oncc5C[C@]4(C)[C@@H]3CC[C@]21C | / | / | / | 9% | 9% | 2%
14 | COc1ccc(C2c3c(C)nn(-c4ccccc4)c3NC(=O)N2c2ccccc2)cc1 (centres undefined) | -1% | -10% | -7% | 0% | -8%[10 µM] | 5%
15 | CCN(CC)CCCNC(=O)c1ccc2c(SCC(=O)O)c3c(nc2c1)CCC3 | 5% | -3% | -5% | -1% | / | 3%
16 | COc1ccc(Oc2nc3c(c(=O)n(C)c(=O)n3C)n2Cc2ccccc2)cc1 | 0%[9.22 µM] | -2% | 10% | 2% | 7% | -1%
17 | CC(=O)Nc1cccc(NC(=O)CSc2nnc(Cc3cccn3C)n2-c2ccc(F)cc2)c1 | -1% | 1% | ? | -1% | 6%[10 µM] | -2%
18 | Cc1ccc(-c2nc3c(cnn3-c3ccccc3)c(=O)o2)cc1 | -6% | -5% | 5% | 1% | -3% | -1%
19 | O=C(COc1ccccc1)NNC(=O)COc1ccc([N+](=O)[O-])cc1 | -12% | -9% | -22% | -11% | -31%[inhibitor] | 1%
20 | COCCN(CCOC)C(=O)CCn1c(=O)oc2ccccc21 | -11% | 0% | 8% | 2% | -6%[10 µM] | -7%
21 | CCSc1nnc(NC(=O)CSc2nnc(Cc3cccn3C)n2-c2ccc(C)cc2)s1 | -24% | -5% | 5% | -1% | -13% | 10%
22 | CSc1ccc(S(=O)(=O)NCc2ccccc2Cl)cc1 | 11% | 2% | 3% | -7% | -2% | 9%
23 | COc1ccc(C(=O)N/C(=C\c2cccs2)c2nc3ccccc3[nH]2)cc1OC | ? | -11% | -3% | -21% | -35% | -14%
24 | CCCC(C)c1nnc(NC(=O)c2cc(C(=O)OC)cc([N+](=O)[O-])c2)s1 (centres undefined) | -10% | -12% | 0% | -1% | -8% | -20%
25 | CSc1nc(N2CCOCC2)c2c3c(sc2n1)CCC3 | 6% | -4% | -5% | -7% | -27% | 13%
26 | COc1ccc(NC2CS(=O)(=O)CC2NCc2ccccc2)cc1 (centres undefined) | 2% | -9% | ? | -6% | 17%[10 µM] | 0%
27 | CCN(c1ccc(NC(=O)COC(=O)c2ccc(S(=O)(=O)N3CCCC3)cc2)cc1)C(C)C | -3% | -13% | -1% | -5% | -10% | -46%
28 | CCOc1cc(C(=O)N2CCN=C2SC)cc(OCC)c1OCC | -4% | -4% | 3% | 5% | 15% | 4%
29 | O=Cc1cccn1Cc1ccccc1[N+](=O)[O-] | 11% | 2% | -1% | -1% | / | -9%
30 | COc1ccc(CNc2ncnc3cc(Cl)ccc23)cc1 | 14µM* | -15% | 11% | -5% | -24% | -12%
31 | CC1(C)CC2CC(C)(CN2C(=O)c2ccc([N+](=O)[O-])cc2[N+](=O)[O-])C1 (centres undefined) | 14% | 1% | 5% | -6% | -55%[inhibitor] | -16%
32 | Cc1ccc(S(=O)(=O)Nc2nc(C)cc(NCCN)n2)cc1 | 6% | -15% | 7% | -1% | -2% | 5%
33 | COCCCNC(=O)CC(NS(=O)(=O)c1ccc(C)cc1)c1ccc(OC)cc1 (centres undefined) | -3% | -4% | 8% | 0% | 38% | 5%
34 | Cc1oc(C(=O)Nc2ccc(O)cc2)cc1COc1ccccc1 | 22% | -34% | -17% | -5% | -47%[inhibitor][10 µM] | -7%
35 | Cc1ccc(CNC(=O)CNC(=O)c2c(C)nn(C)c2Cl)cc1 | 1% | -6% | 2% | -1% | -31% | 11%
36 | CCOc1cc(C)c(Cl)cc1S(=O)(=O)N(C)C | 6% | -12% | -5% | -16% | 2%[10 µM] | 4%
37 | O=C(c1ccccc1)c1ccccc1 | / | / | / | 4%&-1% | 1% | -14%&-11%
38 | Cc1sc2ncnc(N3CCN(c4ncccn4)CC3)c2c1C | 17%[9.22 µM] | 1% | -17% | 3% | -16%[10 µM] | 5%
39 | CCOCCCn1c(=N)c(C(=O)NCc2ccc3c(c2)OCO3)cc2c(=O)n3cccc(C)c3nc21 | -10% | -5% | -9% | -6% | -7%[10 µM] | -26%
40 | CCCC1=C(C(=O)OCC)C(c2ccc(OC)c(CSc3ccccn3)c2)C(C#N)=C(N)O1 (centres undefined) | -10% | 3% | -10% | -6% | 1%[10 µM] | 0%
41 | Cc1cc(C)nc(/N=C(\N)Nc2ccc(F)c([N+](=O)[O-])c2)n1 | -19% | 5% | -16% | -12% | 14% | -6%
42 | O=C(NN=C1CCCCCCCCCCC1)c1cccc(S(=O)(=O)N2CCOCC2)c1 | -1% | -3% | -21% | 2% | -16%[10 µM] | 7%
43 | O=S(=O)(c1cccc2nsnc12)N1CCN(c2ncccn2)CC1 | -24% | -6% | -12% | -5% | -13%[10 µM] | -5%
44 | Cc1ccc([N+](=O)[O-])cc1NC1CC(O)C(CO)O1 (centres undefined) | 3% | 0% | -5% | 7% | 12%[1.9 µM] | -17%
45 | CCC(C)n1c(C)nc2c(c1=O)c1nc3ccccc3nc1n2CCC1=CCCCC1 (centres undefined) | 15% | 13% | 4% | -8% | 12% | -2%
46 | O=S(=O)(NC1CCCCC1NCc1ccco1)c1ccc(Cl)cc1 (centres undefined) | 2% | 0% | 6% | -1% | -17% | -6%
47 | CC(=O)OCP(C)(=O)COC(C)=O | -22% | -12% | 3% | -4% | -10%[0.074 µM] | 2%
48 | CC(=O)NS(=O)(=O)c1ccc(NC(=O)/C=C/c2ccco2)cc1 | 1% | 5% | -9% | -4% | / | -1%
49 | O=C(N/N=C/c1ccc(O)c2ncccc12)c1cccc(Br)c1 | ? | 3% | -7% | -13% | -66%[inhibitor][10 µM] | 13%
50 | Cc1ccc(SCc2nc(-c3cccnc3)no2)cc1 | -12% | -6% | 3% | -11% | 4%[0.074 µM] | 6%

Carrying on.
nr | Molecule | HttQ103 aggreg | GAA inhib | GAA glycogen | GAA spleen mod | HTT cytoprotect | RGS12 GoLoco inh
51 | C[N+]1(C)CC[C@H](OC(=O)[C@@](O)(c2ccccc2)C2CCCC2)C1 | / | / | -2%[76.3 µM] | / | / | /
52 | CN(C)CCOC(c1ccccc1)c1ccccc1 (tested in a mixture with another compound) | 8% | 0%[15.4 µM] | -2% | -20% | 3.2µM*! | -3%
53 | Cc1onc(-c2ccccc2Cl)c1C(=O)NNC(=O)C1CCN(Cc2ccccc2)CC1 | 34% | 2% | 5% | -2% | -23% | 6%
54 | CCN(C(=O)COc1cc(=O)n(CC)c2ccccc12)c1cc(Cl)ccc1OC | -10% | -10% | 1% | -6% | -2% | 7%
55 | OCc1cnc(SCc2ccccc2)n1Cc1ccccc1 | ? | -4% | -12% | -5% | -32% | 10%

Among those listed so far, eleven have a Cl atom.
nr | Molecule | HttQ103 aggreg | GAA inhib | GAA glycogen | GAA spleen mod | HTT cytoprotect | RGS12 GoLoco inh
1 | CCC[C@@H]1C[C@@H](C(=O)NC(C(C)Cl)[C@H]2O[C@H](SC)[C@H](O)[C@@H](O)[C@H]2O)N(C)C1 (some centres undefined) | / | / | 3%[76.3 µM] | -9% | ? | 0%
6 | COc1c(Cl)cnn(-c2ccc(C)cc2)c1=O | 6% | -9% | 7% | 4% | -20%[10 µM] | -4%
8 | N#CC1=C(N)Oc2c(oc(CO)cc2=O)C12C(=O)Nc1ccc(Cl)cc12 (centres undefined) | 12% | -1% | 8% | -2% | -6%[10 µM] | -15%
9 | O=C(NC1CCCC1)c1cc(Cl)ccc1[N+](=O)[O-] | 24% | -1% | 4% | -1% | / | 7%
22 | CSc1ccc(S(=O)(=O)NCc2ccccc2Cl)cc1 | 11% | 2% | 3% | -7% | -2% | 9%
30 | COc1ccc(CNc2ncnc3cc(Cl)ccc23)cc1 | 14µM* | -15% | 11% | -5% | -24% | -12%
35 | Cc1ccc(CNC(=O)CNC(=O)c2c(C)nn(C)c2Cl)cc1 | 1% | -6% | 2% | -1% | -31% | 11%
36 | CCOc1cc(C)c(Cl)cc1S(=O)(=O)N(C)C | 6% | -12% | -5% | -16% | 2%[10 µM] | 4%
46 | O=S(=O)(NC1CCCCC1NCc1ccco1)c1ccc(Cl)cc1 (centres undefined) | 2% | 0% | 6% | -1% | -17% | -6%
53 | Cc1onc(-c2ccccc2Cl)c1C(=O)NNC(=O)C1CCN(Cc2ccccc2)CC1 | 34% | 2% | 5% | -2% | -23% | 6%
54 | CCN(C(=O)COc1cc(=O)n(CC)c2ccccc12)c1cc(Cl)ccc1OC | -10% | -10% | 1% | -6% | -2% | 7%

Only part of the results is shown; rates above refer to the full screens.
